RE007 growth inh = less growth of the S. pombe RE007 Vpr strain; S. pombe RE007 Vpr strain, BacTiter-Glo ATP luminescence, 24 h; control for the full effect not named in the record; Potency, µM (doses to about 92.2 µM), for the others: top-dose activity change, negative = less growth; actives 0.21% (n = 360,000); AID 651644; active = well fitted falling curve with a large enough effect; inconclusive = small, poorly fitted or top-dose-only effect; inactive = no such curve, though single readings can be large or run the other way;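 note: % is set by controls: 0 for no effect and ±100 for the full control effect; nearly all actives have a fitted effect of over 50% in size; the assay follows cell death caused by Vpr and the record does not say whether a fall means rescue or toxicity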
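Fission yeast RE007 carrying one integrated HIV-1 vpr copy, seeded at OD 0.01 in PMG+AL medium with 23 nL pinned compound. Grown 24 h at 30 degrees; viability read by BacTiter-Glo luminescence after 5 min.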
Lassa entry inh = blocks Lassa virus binding to or entry into cells | Lassa virus pseudotype entry inhibition, cell reporter; control for the full effect not named in the record | Potency, µM (series often up to 37.9 µM), for the others: at the highest dose activity change, negative = inhibition, actives largely listed as inhibitors | actives 1.2% (n = 300,000) | AID 540256; active means well fitted inhibition curve with a large enough effect; inconclusive means small, poorly fitted or top-dose-only effect, or effect the other way; inactive means flat fitted curve, though single readings scatter; tested in HEK293 cells; note: % is set by controls: 0 for no effect and ±100 for the full control effect; nearly all actives have a fitted effect of over 50% in size; luciferase read-out
SARS PLpro yeast = blocks SARS-CoV papain-like protease in a yeast assay; S. cerevisiae expressing SARS-CoV PLpro, growth rescue; control for the full effect not named in the record; Potency, µM (doses to about 32.9 µM), for the others: top-dose activity, positive = growth rescue; actives 0.19% (n = 330,000); note: 0% is about no effect; nearly all actives have a fitted effect of over 55% in size; growth read by luminescence after 48 h
Marburg entry inh = inhibitors of Marburg virus binding or cell entry; Potency, µM (doses to about 37.8 µM), without a hit: top-dose activity change, negative = inhibition, most hits filed as inhibitors; actives 1.8% (n = 300,000); Marburg virus pseudotyped entry inhibition, cell reporter; control for the full effect not named in the record; about a third of the inactives were read at about 46 µM; AID 540276; active = well fitted inhibition curve with a large enough effect; inconclusive = small, poorly fitted or top-dose-only effect, or effect the other way; inactive = flat fitted curve, though single readings scatter; tested in HEK293 cells; about a fifth of its hits are not listed in these tables; note: % is set by controls: 0 for no effect and ±100 for the full control effect; luciferase read-out
2A StopGo = FMDV 2A StopGo reporter, luciferase signal. human cells with a luciferase reporter of 2A StopGo recoding; control for the full effect not named in the record. Potency, µM (top dose mostly 57.9 µM), inactives show at the top dose signal change, negative = less light. actives 1.2% (n = 410,000). AID 1159524; active = well fitted falling curve with a large enough effect; inconclusive = small, poorly fitted or top-dose-only effect; inactive = no such curve, though single readings can be large or run the other way; tested in HEK293T cells; note: % is set by controls: 0 for no effect and ±100 for the full control effect; nearly all actives have a fitted effect of over 45% in size; luciferase light after 4 h
Cruzain Triton = inhibitors of Trypanosoma cruzi cruzain with detergent; actives 0.43% (n = 200,000); Potency, µM, for the others: max response, negative = inhibition, actives largely listed as inhibitors; purified cruzain, Z-FR-AMC fluorescence, 0.01% Triton; AID 1478; active = well fitted curve in the direction sought with a large enough effect; inconclusive = small, poorly fitted or top-dose-only effect, or another doubt; inactive = no such curve, though single readings can be large; an effect the other way counts as inactive or inconclusive;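 note: plate controls were neutral wells for no effect and buffer without enzyme for full effect; nearly all actives have a fitted effect of over 40% in size; top concentration of the series not given in the record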
Target sequence (P25779 123-467 limits assumed): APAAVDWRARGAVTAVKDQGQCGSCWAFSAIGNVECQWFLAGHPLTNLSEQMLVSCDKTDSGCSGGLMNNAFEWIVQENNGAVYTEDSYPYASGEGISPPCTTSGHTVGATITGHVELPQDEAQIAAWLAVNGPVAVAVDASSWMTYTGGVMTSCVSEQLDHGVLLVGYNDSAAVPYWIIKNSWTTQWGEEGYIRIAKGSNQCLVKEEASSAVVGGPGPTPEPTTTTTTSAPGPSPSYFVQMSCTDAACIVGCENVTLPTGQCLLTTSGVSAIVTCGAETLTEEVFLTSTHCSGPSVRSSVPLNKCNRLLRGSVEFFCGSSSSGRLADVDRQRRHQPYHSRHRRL
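Steps: dispense cruzain (1.5 nM final) in acetate buffer pH 5.5 with DTT and 0.01% Triton X-100; pin-transfer compounds; incubate 15 min RT; add Z-FR-AMC (2 uM final); read fluorescence every 30 s, using the 60 s intensity change.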
NS1 function inh = blocks influenza NS1 protein function. Potency, µM (top dose mostly 46.1 µM), for the others: top-dose activity, positive = more growth. actives 0.4% (n = 270,000). AID 2326. S. cerevisiae slowed by influenza A NS1, growth recovery by OD600; note: actives are rising curves; nearly all actives have a fitted effect of over 50% in size
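Recovery from NS1-induced slow growth read by OD600 in budding yeast switched to galactose assay medium (pH 6.0, -URA) at 1:100 dilution. Compound 23 nl per well; the matching strain lacking NS1 serves as control.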
Cruzain noTriton = cruzain (T. cruzi) inhibition without detergent | actives 2.3% (n = 200,000) | purified cruzain, Z-FR-AMC fluorescence, no detergent | Potency, µM, without a hit: max response, negative = inhibition, most hits filed as inhibitors | AID 1476; active = well fitted curve in the direction sought with a large enough effect; inconclusive = small, poorly fitted or top-dose-only effect, or another doubt; inactive = no such curve, though single readings can be large; an effect the other way counts as inactive or inconclusive;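 note: plate controls were enzyme without inhibitor for no effect and buffer without enzyme for full effect; nearly all actives have a fitted effect of over 40% in size; top concentration of the series not given in the record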
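Purified cruzain at 1.5 nM, pre-incubated 15 min with compound at room temperature in 100 mM sodium acetate pH 5.5, 5 mM DTT, 0.00005% Triton X-100. Reaction started with 2 uM Z-FR-AMC; AMC fluorescence increase over 60 s gives rate.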
The depositor's hits bear a star; ? = inconclusive; · = no result given; & = joins results of further samples; [ ] = dose if it differs, or a comment. Unless noted, calls come from the whole dose curve; as a rule, active means well fitted rising curve with a large enough effect; inconclusive means small, poorly fitted or top-dose-only effect; inactive means no such curve, though single readings can be large or run the other way. Potency is the fitted concentration of half-maximal effect.

SMILES	RE007 growth inh	Lassa entry inh	SARS PLpro yeast	Marburg entry inh	2A StopGo	Cruzain Triton	NS1 function inh	Cruzain noTriton
O=S1(=O)CCC(NC2CCCC2)C1 (stereo not given)	14%	?	3%	?	-7%	·	1%	·
O=C(O)c1ccccc1CC(CCc1ccccc1)C(=O)O (stereo not given)	-15%	4%[46.1 µM]	·	-5%[46.1 µM]	-12%	·	·	·
COc1cccc(Cn2c(=O)n(CCc3ccccc3)c(=O)c3c2c2cc(OC)ccc2n3C)c1	·	-1%[46.1 µM]	·	·	-8%	-2.0%	·	-8%
O=C(N/N=C/c1cccnc1)C(O)(c1ccccc1)c1ccccc1	1%	10%	2%	15%	0%	-1.1%	7%	-13%
CC(NC(=O)c1ccccc1NS(C)(=O)=O)c1ccccc1 (stereo not given)	-20%	3%	2%	0%	-18%	-3.4%	5%	-8%
CCCN1CCC(N2CCN(c3cccc(C(F)(F)F)c3)CC2)CC1	-1%	?	-4%	?	-27%	-1.8%	14%	-3%
COc1ccc(S(=O)(=O)N(Cc2cccs2)C2CCCC2)cc1	1%	?	-4%	?	-6%	3.4%	-33%	-7%
Cc1cc(C(=O)Nc2ccc(Cl)cc2)c2c(C)nn(-c3ccccc3)c2n1	·	-8%[46.1 µM]	·	·	0%	0.5%	·	-6%
OC(CSc1ccccc1)CN1CCN(c2ccccc2)CC1 (stereo not given)	-10%	-7%	·	?	-10%	·	·	·
Cc1cnc(C(=O)OCC(=O)Nc2cc(S(=O)(=O)N3CCOCC3)ccc2Cl)cn1	3%	13%	3%	0%	0%	·	·	·
COc1ccccc1C(=O)N/C(=C\c1cn(S(=O)(=O)N(C)C)c2ccccc12)C(=O)NCCCN1CCOCC1	-4%	·	-3%	·	-15%	·	-2%	·
CCOC(=O)C1CCN(C(=O)c2cccc(C(=O)N3CCC(C(=O)OCC)CC3)c2)CC1	-8%	0%	?	1%	-5%	3.3%	-2%	11%
COc1cccc(-c2cc(CC3(O)CCN(CCCc4ccccc4)CC3)on2)c1	4%	·	7%	·	-20%	·	5%	·
CC1=C(C(=O)OC(C)C)C(c2ccc(C)o2)C(C(=O)OC(C)C)=C(C)N1	0%	-17%	-1%	?	0%	·	4%	·
CCOc1ccc(CN2CCN(S(=O)(=O)c3ccc(Cl)cc3)CC2)cc1	·	?	·	·	-22%	-3.6%	·	-1%
Cc1ccc(CNC(=O)c2c(-c3ccccc3)noc2C)cc1	6%	17%[46.1 µM]	3%	5%[46.1 µM]	-15%	·	-1%	·
CC(C)CCN1C(=O)CCC1(C)C(=O)NC1CCCCCC1 (stereo not given)	2%	-12%[14.3 µM]	-5%	14%	-1%	16%	3%	12%
Cc1ccc(C2C3C(=O)N(c4ccccc4)C(=O)C3N3CCCN23)cc1 (stereo not given)	-12%	·	1%	·	15%	·	-2%	·
Cc1cccc2c(=O)c(Br)c(C)n(Cc3ccccc3)c12	-16%	5%	-1%	1%[46.1 µM]	-25%	·	-1%	·
CCC1=NN(C(=O)Cc2ccc([N+](=O)[O-])cc2)C(O)(c2ccncc2)C1 (stereo not given)	0%	3%	8%	-12%[46.1 µM]	-8%	·	0%	·
CCC(=O)NC(c1cccs1)c1ccc2cccnc2c1O (stereo not given)	?	·	-7%	·	4%	·	-44%	·
O=C(CCN1C(=O)/C(=C/c2ccc(Cl)cc2)SC1=S)NCCCn1ccnc1	-5%	·	-4%	·	5%	·	11%	·
Cc1cc(C)cc(N(CC(=O)N2CCCCCC2)S(C)(=O)=O)c1	-7%	6%[46.1 µM]	5%	7%[46.1 µM]	6%	·	?	·
Cc1nc(SCC(=O)c2ccc(F)c(F)c2)[nH]c(=O)c1Oc1ccc(Cl)cc1	1%	·	-1%	·	-9%	·	8%	·
CCc1ccc(CNC(=O)c2sc3ncnc(N(C)C4CCCCC4)c3c2C)cc1	·	-29%[46.1 µM]	·	·	-12%	-3.0%	·	3%

Compound profiles (already shown). Order of values: RE007 growth inh	Lassa entry inh	SARS PLpro yeast	Marburg entry inh	2A StopGo	Cruzain Triton	NS1 function inh	Cruzain noTriton
CCC(=O)NC(c1cccs1)c1ccc2cccnc2c1O (stereo not given) in the list: ?	·	-7%	·	4%	·	-44%	·
Cc1ccc(C2C3C(=O)N(c4ccccc4)C(=O)C3N3CCCN23)cc1 (stereo not given) in the list: -12%	·	1%	·	15%	·	-2%	·
OC(CSc1ccccc1)CN1CCN(c2ccccc2)CC1 (stereo not given) in the list: -10%	-7%	·	?	-10%	·	·	·
O=C(O)c1ccccc1CC(CCc1ccccc1)C(=O)O (stereo not given) in the list: -15%	4%[46.1 µM]	·	-5%[46.1 µM]	-12%	·	·	·
CCC1=NN(C(=O)Cc2ccc([N+](=O)[O-])cc2)C(O)(c2ccncc2)C1 (stereo not given) in the list: 0%	3%	8%	-12%[46.1 µM]	-8%	·	0%	·

(list continues)
SMILES	RE007 growth inh	Lassa entry inh	SARS PLpro yeast	Marburg entry inh	2A StopGo	Cruzain Triton	NS1 function inh	Cruzain noTriton
O=C(Nc1ccc(OCc2ccccc2)cc1)c1ccccc1	20%	23%	1%	?	32%[activator]	·	·	·
COc1ccc(-c2nc3nc(N)nn3cc2C)cc1F	2%	13%	-1%	2%	-23%	·	-3%	·
COc1cc(/C=C2/C(C)=C(C#N)c3nc(N)c(C#N)c(C)c32)ccc1OCC(=O)O	14%	0%	2%	?	-15%	·	12%	·
Cc1cc(NC(=S)Nc2ccccc2)ccc1Br	11%	0%	27%	-4%	20%	1.3%	-14%	0%
CC(=O)Nc1ccc2c3c(cccc13)CC2	17%	10%	·	-10%	27%	·	·	·
CCOC(=O)/C(C#N)=C1\C(=O)N(Cc2ccccc2)c2ccccc21	2%	?	-3%	?	23%	·	5%	·
COc1ccc(CCc2nnc(N)s2)cc1OC	-5%	13%[46.1 µM]	0%	7%[46.1 µM]	13%	·	-10%	·
CCOc1ccccc1NC(c1nnc(-c2ccccc2)o1)c1ccc(F)cc1Cl (stereo not given)	·	1%[46.1 µM]	·	-18%[46.1 µM]	-13%	-4.7%	·	-10%
Cc1cccc(NC(=S)NCc2ccc3c(c2)cc(C)n3C)c1C	-11%	·	0%	·	-7%	·	?	·
Cc1cc(C(=O)NCc2ccc(S(N)(=O)=O)cc2)c(C)o1	4%	3%	·	12%	-4%	8.0%	10%	5%
COC(=O)N/N=C\c1ccc(OC/C=C/c2ccccc2)c(OC)c1	2%	10%[46.1 µM]	1%	20%[46.1 µM]	2%	·	-12%	·
CCc1cc(C(=O)N2CCCC(Nc3ccc(F)c(F)c3)C2)n(C)n1 (stereo not given)	-23%	6%	0%	-2%	-12%	·	12%	·
O=C(/C=C/c1ccc([N+](=O)[O-])cc1)NCCSCc1ccco1	-20%	11%	-23%	6%	0%	-5.5%	-1%	-9%
CC(C)NC(C)C(=O)c1ccc2ccccc2c1 (stereo not given)	-14%	1%[46.1 µM]	1%	-6%[46.1 µM]	-10%	·	1%	·
CCc1ccc(C(=O)OCC(=O)N(CCOC)c2c(N)n(Cc3ccccc3)c(=O)[nH]c2=O)cc1	-8%	0%	2%	-4%	17%	·	·	·
CN(C)c1ccc(/C=C/C(=O)c2ccc(O)cc2)cc1[N+](=O)[O-]	1%	-11%[46.1 µM]	0%	-29%[46.1 µM]	-1%	·	2%	·
CCCCC(=O)Nc1sc2c(c1C(N)=O)CCC2	-5%	9%	-9%	-8%	·	-7.2%	-25%	-1%
CCNC(=O)CSc1nc2cc(S(=O)(=O)Nc3ccc(OC)cc3)ccc2o1	-2%	-26%[46.1 µM]	-1%	?	-3%	·	3%	·
CC(CC(=O)N1CCc2ccccc21)n1cccn1 (stereo not given)	14%	·	0%	·	43%[activator]	·	0%	·
COc1ccccc1N1CCN(CCCCN2C(=O)c3ccccc3C2=O)CC1	-12%[18.4 µM]	?	·	?	-15%&-2%&-21%	8.2%&-0.1%	?	?
O=C(NCc1ccco1)c1cccc2ccccc12	-4%	1%	-6%	10%	-17%	1.8%	-7%	0%
CS(=O)(=O)N1CCN(C(=S)NCc2ccc(Cl)cc2)CC1	5%	-2%[46.1 µM]	2%	2%[46.1 µM]	-5%	·	·	·
COC(=O)c1ccc(Cn2nnc3sc4c(c3c2=O)CCCC4)cc1	·	8%[46.1 µM]	·	?	23%	-1.4%	·	2%
COc1ccc(S(=O)(=O)N(CC(=O)Nc2ccc(C)cc2)c2ccc(C)cc2)cc1OC	·	4%[46.1 µM]	·	·	-18%	0.6%	·	-3%
Cc1cccn2cc(-c3cccc(NC(=O)c4cccs4)c3)nc12	-10%	29%	-3%	?	31%[activator]	·	-2%	·
Cn1c(SCc2ccc(Br)cc2)nnc1-c1cccs1	54%	?	-4%	-23%	25%	-0.9%	-141%	-6%
N#Cc1c(NC(=O)c2cc(-n3cnnc3)ccc2Cl)sc2c1CCCC2	-6%	-14%	1%	0%	?	-13%	-5%	?
CCOc1ccc(C(=O)Nc2ccc3nc(N(CC)CC)cc(C)c3c2)cc1	·	10%[46.1 µM]	·	29%[46.1 µM]	32µM*	-6.7%	·	-3%
N/C(=N\OC(=O)Cc1ccccc1)c1cccnc1	12%	-24%[14.3 µM]	1%	12%	46%[activator]	6.8%	-12%	-1%

Quoted at random: 2 records from the list
SMILES	RE007 growth inh	Lassa entry inh	SARS PLpro yeast	Marburg entry inh	2A StopGo	Cruzain Triton	NS1 function inh	Cruzain noTriton
COc1cc(/C=C2/C(C)=C(C#N)c3nc(N)c(C#N)c(C)c32)ccc1OCC(=O)O	14%	0%	2%	?	-15%	·	12%	·
COC(=O)c1ccc(Cn2nnc3sc4c(c3c2=O)CCCC4)cc1	·	8%[46.1 µM]	·	?	23%	-1.4%	·	2%

High-throughput results: PubChem, National Center for Advancing Translational Sciences (NCATS)
